gsp ag: gsp mutant agonism | gsp mutant cells, cAMP HTRF, 30 min; control for the full effect not named in the record | Potency, µM (highest dose often 76.9 µM), for inactives: at the top dose activation (cAMP increase), usual class: activators | hit rate 0.13% among 340,000; active = well fitted activation curve with a large enough effect; inconclusive = small, poorly fitted or top-dose-only effect, or another doubt; inactive = no such curve, though single readings can be large or run the other way; cell line not stated here;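 further: phosphodiesterase inhibitor Ro 20-1724 added with compounds to block cAMP breakdown; potency means the concentration at half of the fitted maximal effect; nearly all actives have a fitted effect of over 60% in size; about a fifth of the inactives were tested at one dose only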
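Cells in DMEM/10% FBS with G418 were pretreated with compounds in DMSO plus […] (300 uM stock) for 30 min at 37C. cAMP was measured by HTRF (cAMP-d2 plus anti-cAMP antibody-K) after 30 min at room temperature.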
Menin MLL FP FL: menin-MLL binding inhibition, fluorescein peptide | Fluorescence polarization, fluorescein-MLL peptide displacement from menin | FP activity change, % at 61.4 µM | 290,000 tested, under 10 active; inconclusive = falling polarisation curve, or a change in total fluorescence; inactive = total fluorescence flat and polarisation flat or rising; no compound was filed as active; the % refers to the polarisation; negative = inhibition;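 further: % of control where 0% means no effect; inhibitors lower the polarisation; unlabelled MLL peptide was the positive control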
ClpP mod: qHTS Assay for Activators of ClpP | ATP-dependent Clp protease proteolytic subunit (Bacillus subtilis (strain 168)), P80244 | purified B. subtilis ClpP, FRET peptide cleavage, 20 min | Potency, µM (top dose mostly 57.5 µM), without a hit: at the highest dose activity change, negative = active | hit rate 1.9% among 340,000; active = well fitted falling curve with a large enough effect; inconclusive = small, poorly fitted or top-dose-only effect; inactive = no such curve, though single readings can be large or run the other way; further: potency means the concentration at half of the fitted maximal effect; the source files actives as falling curves though it sought activators and does not explain the sign; nearly all actives have a fitted effect of over 65% in size; many hits overshoot -100%
Target sequence (P80244 whole entry, looked up): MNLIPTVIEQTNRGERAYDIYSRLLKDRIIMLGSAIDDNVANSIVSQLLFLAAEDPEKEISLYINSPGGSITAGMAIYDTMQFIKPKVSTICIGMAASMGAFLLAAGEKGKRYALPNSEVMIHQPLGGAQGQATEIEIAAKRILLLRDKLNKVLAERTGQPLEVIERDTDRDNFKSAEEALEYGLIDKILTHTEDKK
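Purified B. subtilis ClpP, 10 microg/mL final in Tris/HCl pH8 with KCl, BSA, glycerol and Tween-20, cleaved an Abz/nitrotyrosine-quenched decapeptide. Fluorescence (ex 320, em 430) was read at 0 and 20 min at room temperature. Delta was normalized to 5.8 microM ADEP and DMSO/no-enzyme controls.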
D2 agonist: agonists of human D2 dopamine receptor (beta-arrestin); P14416; activation, % (test concentration not listed); DiscoveRx PathHunter D2 beta-arrestin, luminescence, 90 min; 100% = 57 uM dopamine signal; hit rate 0.084% among 360,000; in the data active = activation above about 40%; inconclusive = about 15% to 40%; inactive = below about 15%; further: compound concentration not given in the record; the text of the record calls up to 30% inactive
Target sequence (P14416 whole entry, looked up): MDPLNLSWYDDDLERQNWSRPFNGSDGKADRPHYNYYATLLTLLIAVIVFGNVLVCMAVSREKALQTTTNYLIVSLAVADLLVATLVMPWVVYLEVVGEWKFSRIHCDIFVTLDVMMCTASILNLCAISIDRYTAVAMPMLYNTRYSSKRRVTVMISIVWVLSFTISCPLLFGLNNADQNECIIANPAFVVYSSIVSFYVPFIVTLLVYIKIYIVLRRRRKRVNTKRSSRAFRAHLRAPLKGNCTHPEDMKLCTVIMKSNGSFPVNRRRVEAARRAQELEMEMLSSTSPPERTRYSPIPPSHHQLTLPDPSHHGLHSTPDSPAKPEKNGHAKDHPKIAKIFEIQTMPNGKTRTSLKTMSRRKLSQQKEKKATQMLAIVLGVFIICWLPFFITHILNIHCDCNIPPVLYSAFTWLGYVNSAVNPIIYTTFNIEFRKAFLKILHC
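DiscoveRx PathHunter D2 beta-arrestin cells (2,100/well) attached overnight, then compound-stimulated 90 min at 37 C in HBSS/10 mM HEPES/0.1% Tween-20 buffer; beta-galactosidase complementation read by luminescence after 1 h at ambient temperature. Dopamine 57 uM final (EC100) as control.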
Sfp PPTase inh: inhibitors of Bacillus subtilis Sfp phosphopantetheinyl transferase; Q9F4F7; Biochemical Sfp PPTase activity, qHTS; Potency, µM, without a hit: max response, negative = inhibition, usual class: inhibitors; hit rate 3.5% among 310,000; active means well fitted inhibition curve with a large enough effect; inconclusive means small, poorly fitted or top-dose-only effect, or another doubt; inactive means no such curve, though single readings can be large or run the other way;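 further: the enzyme is Sfp with the accession as filed and its product quenches rhodamine fluorescence; potency means the concentration at half of the fitted maximal effect; 0% = enzyme reaction without inhibitor and -100% = no enzyme wells; top concentration of the series not given in the record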
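Buffer: 50 mM Hepes-Na pH 7.6, 10 mM MgCl2, 0.01% Nonidet P-40, 0.01% BSA. Enzyme 15 nM, pre-exposed to compound 15 min; substrates then added and fluorescence change tracked over 30 min.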
gsp antag: antagonists of gsp mutant (McCune-Albright syndrome); hit rate 0.4% among 340,000; Potency, µM (doses to about 76.9 µM), inactives show top-dose activity change, negative = inhibition, usual class: inhibitors; gsp-mutant cells, cAMP HTRF, 30 min; control for the full effect not named in the record; AID 624288; active = falling curve of any shape with a large fitted effect; inconclusive = falling curve, mostly with a smaller effect; inactive = flat or rising curve; cell line not stated here;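 further: intracellular cAMP measured with PDE inhibitor Ro 20-1724 present during compound exposure; potency means the concentration at half of the fitted maximal effect; on the % scale 0 is the no-effect control and ±100 the full control effect; nearly all actives have a fitted effect of over 65% in size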
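Measurement of cellular cAMP by homogeneous time-resolved fluorescence following a 30 min compound exposure at 37C. The PDE inhibitor […] was present throughout; the assay buffer was DPBS with 0.05% BSA and 0.005% Tween 20.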
PINK1 modulator: PINK1 expression modulation; PINK1 immunofluorescence, high-content cytometry, 24 h; hit rate 0.2% among 410,000; Potency, µM (top dose mostly 76.6 µM), for inactives: at the top dose activation (PINK1 increase), hits mostly activators; active = well fitted activation curve with a large enough effect; inconclusive = small, poorly fitted or top-dose-only effect; inactive = flat fitted curve, though single readings scatter; cell line not stated here;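 further: potency means the concentration at half of the fitted maximal effect; % of control where 0% means no effect; nearly all actives have a fitted effect of over 65% in size; a mitochondrial uncoupler was the plate control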
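Fluorescence from anti-PINK1 antibody, together with nuclear and cell stains, was scanned on a laser-scanning cytometer. Before staining, stable-line cells were incubated 24 hours with compounds at 5 concentrations; primary antibody 12 h at 10 degrees C.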
Numbers without * were called inactive; ? = inconclusive; . = not tested or not shown; [ ] = remark or other dose.

Screens in order: gsp ag	Menin MLL FP FL	ClpP mod	D2 agonist	Sfp PPTase inh	gsp antag	PINK1 modulator
> CCc1cc(C(=O)N(C)CC(=O)Nc2c(Cl)cccc2Cl)sc1C
→ 0%	.	3.4%	0.5	.	-4%	0.7%
> Cc1ccc(-c2nnc(COC(=O)c3cc(=O)[nH]c4ccccc34)o2)cc1
→ ?	-3.2	-9.3%	1.0	9%	-19%	7.7%
> OC[C@@H]1[C@@H](c2ccccc2)C(c2ccccc2)=NN1c1ccccc1
→ .	18[94.6 µM]	3.7%	0.2	14%	-3%	15%
> CCc1ccc(CCC(=O)Nc2nc(CC(C)=O)ns2)o1
→ ?	2.4	-1.5%	3.5	?	-5%	0.3%
> Cc1ccc(S(=O)(=O)N2CCC(C(=O)N3CCC(C(=O)NCC4CCCO4)CC3)CC2)cc1 (stereo not drawn)
→ 8%	-1.4	1.0%	-1.4	?	-5%	-4.0%[38.3 µM]
> O=C(NCC(c1ccco1)N1CCc2ccccc2C1)c1ccc(Cl)cc1 (stereo not drawn)
→ -3%	.	-0.5%	-2.9	.	-16%	0.6%
> CCc1nnc(NC(=O)CSc2nnc(Cc3cc(=O)[nH]c(=O)[nH]3)n2-c2ccc(OC)cc2)s1
→ 19%	-0.2	-1.1%	-8.4	20%	8%	0.5%
> CC(=O)c1c[nH]c2ccc(C)cc2c1=O
→ -7%	4.4	?	1.2	34%[activator]	3%	1.8%
> Cc1ccc(-n2c(C(C)n3nc(C)c([N+](=O)[O-])c3C)n[nH]c2=S)cc1 (stereo not drawn)
→ 6%	1.7	-5.5%	-2.8	-2%	-2%	-1.6%[38.3 µM]
> CCOc1ccc(NC(=O)c2ccccc2NC(=O)c2cccnc2)cc1
→ 17%	2.4	-1.7%	-4.7	11%	-3%	-0.3%
> O=C(Cn1ccccc1=O)c1cccs1
→ 4%	-0.7	-3.6%	-1.4	5%	4%	.
> CCC(C)(C)n1nnnc1C(C(C)C)N1CCC(C(N)=O)CC1 (stereo not drawn)
→ 1%	1.1	-16%	-0.6	7%	6%	1.2%
> O=C(Cn1ncn2c(cc3ccccc32)c1=O)NCCc1cccs1
→ -12%	.	-15%	-2.8	-9%	10%	1.1%
> Cc1ccc(S(=O)(=O)N2CCC(C(=O)NCCN3CCOCC3)CC2)cc1
→ -42%[inhibitor]	.	2.1%	-2.3	.	.	-0.9%
> COc1cc(C(F)(F)F)c(C(=O)NCc2cccc(Cl)c2)cn1
→ 5%[15.4 µM]	1.0	.	1.7	9%	1%	1.6%
> O=c1c(Cc2ccccc2)c(O)nc2n1CCS2
→ -49%[inhibitor]	2.2	-0.3%	-1.5	10%	-43%	-0.9%
> COc1ccc(-c2nc(N)n(C(=O)c3ccccc3Cl)n2)cc1
→ 15%	3.1	19%	-8.8	1%	-7%	6.3%
> O=C(NCCCn1ccnc1)C1CC(c2ccccc2Cl)=NO1 (stereo not drawn)
→ 7%[15.4 µM]	1.8	.	-4.7	16%	8%	-2.1%
> CCSC(=O)NC12CC3CC(CC(C3)C1)C2
→ 9%	0.6	-0.5%	-1.1	-2%	-1%	1.5%[38.3 µM]
> COc1ccc(C(=O)NNC(=O)COc2ccc(Cl)cc2)c(OC)c1
→ 3%	-1.0	-13%	1.0	5%	2%	0.7%
> CCC(C)C(NC(=O)c1ccccc1NC(=O)c1ccc(C)cc1)C(=O)O (stereo not drawn)
→ 21%	2.8	0.6%	3.2	18%	-25%	-1.0%
> COc1ccccc1C=NN=C(NN=Cc1ccccc1OC)NN=Cc1ccccc1OC
→ -39%[inhibitor]	.	-4.6%	12	.	?	28µM*
> O=C(/C=C/c1ccc(F)cc1)N1CCN(c2ncccn2)CC1
→ 14%[15.4 µM]	-2.5	.	-0.4	12%	-2%	4.2%
> COC(=O)C(NC(C)=O)(Nc1ccccn1)C(F)(F)F (stereo not drawn)
→ -42%[inhibitor]	4.0	1.0%	1.8	15%	8%	.
> CC(/C=C/c1ccc(OCc2ccccc2)cc1)=N\O
→ ?	-0.7	-3.3%	0.6	2%	7%	7.7%
> Cn1c(N)c(S(=O)(=O)NCc2ccc(Cl)cc2)c(=O)n(C)c1=O
→ 0%[15.4 µM]	0.6	.	-0.2	16%	12%	10%
> CCCCN(C(=O)CN1CCOCC1)c1c(N)n(CC(C)C)c(=O)[nH]c1=O
→ -29%	-1.5	-1.1%	0.4	11%	13%	-0.6%
> COC(=O)c1sc(=S)n(-c2cccc(Cl)c2)c1N
→ 4%	7.7	-0.1%	1.5	32µM*	7%	-3.2%[38.3 µM]
> COc1ccc(C(=O)Nc2ccccc2C(=O)NC(Cc2c[nH]c3ccccc23)C(=O)O)cc1 (stereo not drawn)
→ 20%[15.4 µM]	4.1	.	5.1	-26%	9%	0.0%
> CCN(CC)c1ccc(C=NCCNS(=O)(=O)c2ccc(C)cc2)cc1
→ 9%[15.4 µM]	-3.1	.	2.6	6%	-4%	-0.7%
> CC1CCCN(C(=O)COC(=O)/C=C/c2ccc(C(F)(F)F)cc2)C1 (stereo not drawn)
→ ?	.	2.8%	-4.1	.	-1%	-0.7%
> COC(=O)c1ccc(Oc2nc3ccccc3n3c(C)nnc23)cc1
→ 21%	.	-5.2%	1.2	.	6%	3.5%
> CC(C)[C@H](NC(=O)OC(C)(C)C)c1nnc(S(=O)(=O)Cc2c(F)cccc2Cl)o1
→ -48%[inhibitor]	3.9	7.0%	-2.7	14µM*	14%	6.3µM*
> CCOC(=O)CCc1c(C)c2ccc(O)cc2oc1=O
→ ?	4.0	?	0.2	-1%	-3%	-0.1%
> CCCCc1cc(=O)oc2c(CN3CCCC3)c(O)ccc12
→ 16%	2.7	-116%	-4.2	-13%	-4%	-1.2%
> O=C1NCCOC(=O)[C@H](Cc2ccc(F)cc2)CC/C=C/C[C@H]1CC(=O)N(CCO)Cc1ccccc1
→ .	.	-0.9%	-2.5	.	-4%	0.0%
> CSc1ccc(/C=C/C(=O)c2ccc(O)cc2)cc1
→ -15%[15.4 µM]	4.6	-1.5%	-4.3	79µM*	-9%	-0.3%
> COCCCNC(=S)Nc1cc2oc3ccccc3c2cc1OC
→ ?	1.0	-24%	-2.6	9%	0%	2.8%
> Cc1[nH][nH]c(=O)c1[C@@H](c1ccccc1[N+](=O)[O-])C(C#N)C#N
→ ?	0.7	-11%	-6.5	-20%	9%	1.5%
> CCc1[nH]nc(C(=O)NC2CCCN(Cc3ccccc3F)C2)c1C (stereo not drawn)
→ ?	.	0.1%	-0.2	15%	11%	0.6%
> NC(=O)COc1ccc(NC(=O)c2ccccc2-c2ccccc2)cc1
→ 27%	-3.3	-1.8%	-3.7	23%	13%	0.2%
> COc1cc2ncnc(NCc3cccs3)c2cc1OC
→ 2%	6.3	-17%	3.0	-5%	-17%	1.3%
> COC(=O)c1sccc1NC(=S)Nc1cc(C)ccc1OC
→ 26%	4.1	-1.5%	1.6	-11%	10%	-0.4%
> Cc1ccc([C@H]2C[C@H](n3cc(COC(=O)c4ccccc4)nn3)[C@@H](O)CN2C(=O)C2CCCCC2)cc1
→ -41%[inhibitor]	.	0.8%	-1.6	.	.	3.3%
> COc1ccc(-c2cc(-c3nnc(COC(=O)C4CC4)o3)c3ccccc3n2)cc1OC
→ 48%	1.8	-12%	-1.4	5%	-7%	0.9%
> Cn1ncc(Br)c1C(=O)N1CCc2ccccc21
→ -22%	2.3	?	-1.3	0%	4%	1.3%
> CCN(C[C@H]1N[C@@](CC)(C(=O)OC)[C@H]2C(=O)N(C)C(=O)[C@@H]12)S(=O)(=O)c1ccc(C(F)(F)F)cc1
→ .	.	-0.7%	-0.9	.	-4%	0.5%
> COc1cc(C(=O)Oc2cccc(Nc3ncnc4ccccc34)c2)cc(OC)c1OC
→ 0%	-0.3	-17%	6.7	12%	-6%	.
> COc1ccc(CC(=O)Nc2ccc(NC(=O)c3ccccc3F)cc2)cc1
→ 6%	0.7	-12%	-2.3	-6%	9%	-1.8%
> O=C(/C=C/Nc1ccc(S(=O)(=O)Nc2ncccn2)cc1)c1ccc2ccccc2c1
→ 1%[15.4 µM]	6.6	.	3.7	12%	-7%	4.0%
> Cc1ccccc1NC1c2ccccc2C(=O)N1Cc1ccco1 (stereo not drawn)
→ 7%	3.3	2.0%	0.9	28µM*	-13%	-0.9%
> O=C(CCc1nc(-c2ccccc2F)no1)NCCN1CCN(Cc2ccccc2)CC1
→ -1%	-1.8	-2.7%	-3.4	12%	3%[15.4 µM]	-1.6%
> Cc1sc2nc[nH]c(=O)c2c1-c1ccc(Cl)cc1
→ -2%	-2.2	.	3.8	2%	1%	-0.2%
> COc1ccc2cc(C(=O)C3CCCN(C(=O)c4cnccn4)C3)ccc2c1 (stereo not drawn)
→ -22%[15.4 µM]	2.1	.	-1.0	1%	-5%	-1.5%
> COC(=O)c1ccc(NC(=O)CC2C(=O)N(C)C(=S)N2Cc2ccc(S(N)(=O)=O)cc2)cc1 (stereo not drawn)
→ -9%	4.0	-0.5%	-3.4	-8%	5%	2.8%
> Cc1nnc2ccc(-c3cccc(NC(=O)c4ccco4)c3)nn12
→ -7%[15.4 µM]	3.6	.	-2.5	13%	-17%	-2.0%
> Cc1ccc(C(=O)NCCCNC(=O)Cc2ccccc2)cn1
→ -6%[15.4 µM]	-9.9	.	-3.7	12%	11%	4.5%

Source: PubChem BioAssay
